Vaccinia stage: blocks a specific stage of Vaccinia orthopoxvirus infection; activity change (mCherry), % (concentration not given with the values); AID 1053133; hit rate 0.01% among 89,000; Vaccinia-infected cells, mCherry/Venus stage reporter fluorescence; hits give low values; some inactives read as strong as hits;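 active = mCherry past -33% and 40 or more points under the early reporter, replicates agreeing; inconclusive = past -33% without that gap or agreement; tested in A549 cells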;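 also: scaled between vehicle wells and reference inhibitor wells; 23 nL library stock went into each well; one replicate is shown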
Vaccinia stage Venus: further read-out of Vaccinia stage, marked with its call; activity change (Venus), %; measured here: Venus reporter, other viral stage;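 negative = less Venus signal; first of two replicates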
* = called active by the depositor; ? = inconclusive; · = not tested or not shown. A portion of the library; rates above refer to the full screens.

Results follow in this order: Vaccinia stage, Vaccinia stage Venus
C[C@H]1CN([C@@H](C)CO)S(=O)(=O)c2ccc(-c3ccc(C(=O)N(C)C)cc3)cc2O[C@H]1CN(C)Cc1ccccc1C(=O)O
→ 15.6, 12.0
CC(C)NC(=O)N(C)C[C@@H]1Oc2ccc(NS(=O)(=O)c3cn(C)cn3)cc2CC(=O)N([C@@H](C)CO)C[C@@H]1C
→ 2.7, 6.4
O=C(NCC(F)(F)F)[C@@H]1[C@@H](CO)[C@@H]2Cn3c(cccc3=O)[C@H]1N2CC1CCOCC1
→ 10.0, 26.8
C[C@H](O)C#Cc1ccc2c(c1)O[C@H](CN(C)Cc1cccnc1)[C@H](C)CN([C@H](C)CO)S2(=O)=O
→ -5.5, -10.7
C[C@H](CO)N1C[C@H](C)[C@H](CN(C)Cc2ccc(F)cc2)Oc2ncc(-c3ccccc3)cc2C1=O
→ -19.3, -15.2
CCCNC(=O)C[C@@H]1CC[C@@H]2[C@H](COC[C@H](O)CN2C(=O)Nc2ccc3c(c2)OCO3)O1
→ 10.7, 5.1
COc1ccc(CN(C)C[C@H]2Oc3ccc(NC(=O)c4ccncc4)cc3CC(=O)N([C@H](C)CO)C[C@H]2C)cc1
→ 7.8, 2.9
O=C(C[C@@H]1CC[C@@H](NC(=O)CC2CC2)[C@@H](CO)O1)NCc1ccccc1
→ 6.0, 0.4
CCC(=O)N[C@H]1CC[C@H](CC(=O)NCc2ccc(OC)cc2)O[C@@H]1CO
→ -7.5, 10.2
C[C@@H]1CN([C@H](C)CO)C(=O)c2cc(Br)cnc2O[C@H]1CN(C)Cc1ccncc1
→ 15.3, 4.2
CC(C)NC(=O)N(C)C[C@@H]1Oc2ccc(NC(=O)CCC(F)(F)F)cc2CC(=O)N([C@@H](C)CO)C[C@@H]1C
→ 16.7, -6.1
CN(C)C(=O)C[C@H]1C[C@@H]2c3cc(N(C)C)ccc3O[C@@H]2[C@@H](CO)O1
→ 10.4, 8.0
COc1ccccc1-c1ccc2n(c1=O)C[C@@H]1[C@@H](CO)[C@H](C(=O)N3CCN(C)CC3)[C@H]2N1CC1CC1
→ 2.2, 5.7
COc1ccc(S(=O)(=O)N(C)C[C@H]2OCCCC[C@@H](C)Oc3ccc(NS(=O)(=O)c4c(C)noc4C)cc3C(=O)N([C@@H](C)CO)C[C@H]2C)cc1
→ ?, ·
C[C@H]1CN([C@@H](C)CO)C(=O)c2cccc(NC(=O)Nc3ccc(C(F)(F)F)cc3)c2O[C@H]1CN(C)C
→ ?, ·
CCC(=O)N1C[C@@H](O)COC[C@H]2O[C@H](CC(=O)N3CCCCC3)CC[C@@H]21
→ 18.3, 9.2
CCCN1[C@H](C(=O)N2CCCCC2)[C@@H](CO)[C@@H]2Cn3c(ccc(-c4ccccc4)c3=O)[C@@H]21
→ 11.5, 17.8
CCCNC(=O)C[C@@H]1C[C@H]2c3cc(NC(=O)Nc4ccc(F)cc4)ccc3O[C@H]2[C@@H](CO)O1
→ 14.8, 9.4
CO[C@H]1CN(C)C(=O)c2ccc(NC(C)=O)cc2OC[C@H](C)N(C(=O)C2CCC2)C[C@@H]1C
→ -3.8, 12.7
CCCNC(=O)N1CCC2(CC1)CN(C(=O)CC)[C@H](CO)c1[nH]c3cc(OC)ccc3c12
→ 17.9, 4.8
CC(C)(C)[S@](=O)N1Cc2cc(C(=O)NCCN3CCCCC3)nc(-c3cccc(-c4ccc(C#N)cc4)c3)c2[C@@H]1CCO
→ ?, ·
COc1ccc(S(=O)(=O)Nc2ccc3c(c2)CC(=O)N([C@@H](C)CO)C[C@@H](C)[C@H](CN(C)S(C)(=O)=O)O3)cc1
→ 11.1, 7.0
COCC#Cc1ccc2c(c1)O[C@@H](CN(C)C(=O)Nc1ccc(OC)cc1)[C@@H](C)CN([C@H](C)CO)S2(=O)=O
→ -14.3, -16.0
CCNC(=O)C[C@H]1CC[C@@H]2[C@@H](COc3ccc(NC(=O)c4ccccc4)cc3C(=O)N2C)O1
→ 6.4, 2.2
O=C(C[C@H]1CC[C@@H]2NC[C@H](O)COC[C@H]2O1)NCCc1ccncc1
→ 9.7, 5.3
C[C@H](O)C#Cc1cnc2c(c1)C(=O)N([C@@H](C)CO)C[C@@H](C)[C@@H](CN(C)C(=O)Nc1ccc(F)cc1)O2
→ 18.6, 16.1
COc1ccc(S(=O)(=O)N(C)C[C@@H]2Oc3ccc(NC(=O)Nc4ccc5c(c4)OCO5)cc3C(=O)N([C@H](C)CO)C[C@H]2C)cc1
→ 1.9, 11.8
CN(C)C(=O)[C@@H]1[C@@H](CO)[C@@H]2Cn3c(ccc(C4=CCCC4)c3=O)[C@H]1N2Cc1cccnc1
→ 4.3, -1.1
O=C(C[C@H]1CC[C@@H]2NC[C@H](O)COC[C@H]2O1)NCCN1CCCC1
→ 30.8, 25.5
Cc1ccc(S(=O)(=O)Nc2ccc3c(c2)C(=O)N([C@H](C)CO)C[C@@H](C)[C@H](CN(C)S(=O)(=O)c2cn(C)cn2)OCCCC[C@@H](C)O3)cc1
→ 9.5, 7.9

Whole records as entered above:
CC(C)(C)[S@](=O)N1Cc2cc(C(=O)NCCN3CCCCC3)nc(-c3cccc(-c4ccc(C#N)cc4)c3)c2[C@@H]1CCO is entered as Vaccinia stage = ?; Vaccinia stage Venus = ·
CCCNC(=O)C[C@@H]1C[C@H]2c3cc(NC(=O)Nc4ccc(F)cc4)ccc3O[C@H]2[C@@H](CO)O1 is entered as Vaccinia stage = 14.8; Vaccinia stage Venus = 9.4
CN(C)C(=O)[C@@H]1[C@@H](CO)[C@@H]2Cn3c(ccc(C4=CCCC4)c3=O)[C@H]1N2Cc1cccnc1 is entered as Vaccinia stage = 4.3; Vaccinia stage Venus = -1.1

(more compounds)
Results follow in this order: Vaccinia stage, Vaccinia stage Venus
C[C@H]1CCCCO[C@@H](CN(C)Cc2ccccc2)[C@@H](C)CN([C@@H](C)CO)C(=O)c2cc(NC(=O)CCCN(C)C)ccc2O1
→ -16.0, -3.3
COc1ccc(NC(=O)N2CC(=O)N3[C@H](CO)[C@@H](c4ccc(-c5ccc(C)cc5)cc4)[C@H]3C2)cc1
→ ?, ·
CN(C)C(=O)C[C@H]1CC[C@H](NS(=O)(=O)c2ccccc2)[C@@H](CO)O1
→ 4.8, 4.3
C[C@H](CO)N1C[C@H](C)[C@H](CN(C)C(=O)Cc2cccnc2)Oc2ncc(C#CCN(C)C)cc2C1=O
→ 24.1, 7.7
O=C(Cc1ccccn1)NCC[C@@H]1CC[C@H](NC(=O)Nc2ccc(F)cc2)[C@H](CO)O1
→ 1.5, -1.7
COCCNC(=O)C[C@@H]1C=C[C@H](NC(=O)NC2CCCCC2)[C@@H](CO)O1
→ 0.0, 5.8
C[C@@H]1CN([C@H](C)CO)C(=O)c2cc(C#C[C@@H](C)O)cnc2O[C@H]1CN(C)C(=O)Cc1ccccn1
→ 8.6, 6.0
CO[C@@H]1CN(C)C(=O)c2cc(NS(=O)(=O)c3ccc(Cl)cc3)ccc2OC[C@@H](C)NC[C@@H]1C
→ 11.1, 17.9
Cc1ccc(F)cc1S(=O)(=O)N[C@@H]1CCN(Cc2ccc(-c3ccccc3)cc2)C1
→ -23.2, -24.3
C[C@H]1CN([C@@H](C)CO)C(=O)c2c(c3ccccc3n2C)-c2ccccc2CO[C@@H]1CN(C)S(=O)(=O)c1ccccc1C#N
→ -34.1, -27.4
COCC(=O)N1[C@H](CO)[C@H](c2ccccc2)C12CN(C(=O)c1ccc(F)cc1)C2
→ -1.8, -0.9
CCCC(=O)Nc1ccc2c(c1)OC[C@H](C)NC[C@H](C)[C@@H](OC)CN(C)C2=O
→ 11.1, 11.9
COCCNC(=O)C[C@@H]1C[C@H]2c3cc(NC(=O)Nc4ccccc4)ccc3O[C@H]2[C@H](CO)O1
→ -15.0, -9.8
CCCC(=O)Nc1ccc2c(c1)C(=O)N(C)[C@H]1CC[C@H](CC(=O)Nc3ccc(C)cc3)O[C@@H]1CO2
→ -10.5, -7.6
COc1ccc2c3c([nH]c2c1)[C@H](CO)N(C(=O)Cc1ccccc1)CC31CN(C(=O)Cc2ccccc2)C1
→ -4.6, -2.9

The list continues.
| Molecule | Vaccinia stage | Vaccinia stage Venus |
| --- | --- | --- |
| CC(C)(C)[S@@](=O)N1Cc2cc(C(=O)NCCN3CCCC3)nc(-c3cccc(-c4ccc(C#N)cc4)c3)c2[C@H]1CCO | 0.9 | 18.8 |
| CC(C)NC(=O)Nc1ccc2c(c1)C(=O)N([C@H](C)CO)C[C@H](C)[C@H](CN(C)S(=O)(=O)c1cn(C)cn1)O2 | 25.7 | 15.3 |
| C[C@H](C(=O)N(C)C[C@@H]1OCc2ccccc2-c2ccccc2C(=O)N([C@@H](C)CO)C[C@H]1C)c1ccccc1 | 9.0 | 1.8 |
| COc1ccc2c3c([nH]c2c1)[C@@H](CO)N(C(=O)Nc1cccc(F)c1)CC31CN(S(=O)(=O)c2cccc(C)c2)C1 | -11.0 | -15.7 |
| COc1ccc(CN(C)C[C@@H]2OCCCC[C@@H](C)Oc3ccc(NS(=O)(=O)c4ccc(C)cc4)cc3C(=O)N([C@H](C)CO)C[C@@H]2C)cc1 | -2.3 | -13.2 |
| C[C@@H]1CCCCO[C@H](CN(C)C)[C@H](C)CN([C@@H](C)CO)C(=O)c2cc(NC(=O)Nc3ccccc3)ccc2O1 | -16.9 | -11.2 |
| O=C(Nc1ccc(F)cc1)N1C[C@@H]2[C@H](c3ccccc31)[C@@H](CO)N2C(=O)c1ccccc1 | -0.1 | 18.6 |
| CN1C(=O)c2cc(NS(C)(=O)=O)ccc2OC[C@@H]2O[C@@H](CC(=O)O)CC[C@@H]21 | 9.2 | 19.5 |
| CO[C@@H]1CC[C@@H]2CCOc3ccc(C#N)cc3C(=O)N(C)C[C@@H](OC)[C@@H](C)C(=O)N(C)C[C@H]1O2 | 6.5 | 10.3 |
| CCCC#Cc1ccc2c(c1)O[C@H](CN(C)C(=O)COC)[C@@H](C)CN([C@@H](C)CO)S2(=O)=O | -5.4 | -12.5 |
| C[C@H](CO)N1C[C@H](C)[C@@H](CN(C)C(=O)C2CCCCC2)Oc2ncc(C3=CCCC3)cc2C1=O | -4.8 | -3.9 |
| C[C@@H]1CN([C@H](C)CO)C(=O)c2cc(NC(=O)CCN3CCOCC3)ccc2O[C@H]1CN(C)Cc1ccc(Oc2ccccc2)cc1 | -16.3 | -17.7 |
| C[C@H](CO)N1C[C@H](C)[C@@H](CN(C)C(=O)Nc2ccc(F)cc2)OCCCC[C@H](C)Oc2ccc(NC(=O)Nc3ccc4c(c3)OCO4)cc2C1=O | 2.2 | 0.6 |
| CC(C)CC#Cc1ccc([C@H]2[C@H](CO)N3C(=O)CN(S(=O)(=O)c4ccccc4)C[C@@H]23)cc1 | ? | · |
| CS(=O)(=O)N[C@@H]1C[C@@H]2O[C@@H](CO)CC[C@@H]2O[C@@H]1CCc1ccc(/C=C/c2ccccc2)cc1 | ? | · |
| CN(C)C(=O)C[C@H]1C[C@@H]2c3cc(NC(=O)c4cccnc4)ccc3O[C@@H]2[C@H](CO)O1 | 1.0 | 2.7 |
| COc1cccc(-c2ccc3c(c2)O[C@H](CN(C)C(C)=O)[C@@H](C)CN([C@H](C)CO)S3(=O)=O)c1 | -5.7 | -5.0 |
| CO[C@H]1CN(C)C(=O)c2cc(NC(=O)c3ccc(F)cc3)ccc2OC[C@@H](C)N(C)C[C@@H]1C | -5.4 | -12.3 |
| O=C(C1CC1)N1CC(=O)N2[C@H](CO)[C@@H](c3ccc(-c4cccnc4)cc3)[C@H]2C1 | 0.4 | 0.0 |
| [N-]=[N+]=NCc1ccccc1C[C@@]1(C(=O)N2CCOCC2)N=C(c2ccc(OCCCO)cc2)O[C@@H]1c1ccccc1 | ? | · |
| C[C@H]1CN([C@@H](C)CO)C(=O)CCCn2cc(nn2)CO[C@@H]1CN(C)S(=O)(=O)c1ccc2c(c1)OCCCO2 | 10.9 | 7.4 |
| O=C(C[C@@H]1CC[C@@H]2[C@H](COC[C@@H](O)CN2Cc2cccc(-c3ccncc3)c2)O1)N1CCOCC1 | ? | · |
| COc1ccc(OC(=O)N(C)C[C@H]2OCc3cn(nn3)CCCC(=O)N([C@@H](C)CO)C[C@H]2C)cc1 | 14.3 | 5.0 |
| C[C@H](NC(=O)C[C@@H]1C=C[C@@H](NC(=O)C2CCOCC2)[C@H](CO)O1)c1ccccc1 | 10.1 | 5.1 |
| C[C@H]1CN([C@@H](C)CO)C(=O)c2cc(NC(=O)Nc3ccc(C(F)(F)F)cc3)ccc2O[C@@H]1CN(C)C(=O)Nc1ccc(F)cc1 | -14.1 | -5.6 |
| Cc1ccc(S(=O)(=O)N2CC[C@@H]3[C@H](CO)Nc4ccc(Br)cc4[C@@H]32)cc1 | -33.1 | -26.1 |
| COCC#Cc1cnc2c(c1)C(=O)N([C@H](C)CO)C[C@@H](C)[C@H](CN(C)C(=O)Nc1c(C)noc1C)O2 | 23.3 | 22.6 |
| C[C@@H]1CN([C@H](C)CO)S(=O)(=O)c2ccc(C3=CCCC3)cc2O[C@@H]1CN(C)C(=O)c1cnccn1 | 3.0 | 6.2 |
| CCNC(=O)Nc1ccc2c(c1)C(=O)N(C)[C@@H]1CC[C@H](CC(=O)N[C@@H](C)c3ccccc3)O[C@@H]1CO2 | -0.9 | -1.5 |
| C/C=C/c1ccc([C@@H]2[C@H](CO)N3CCCCN(C(=O)Nc4cc(F)ccc4F)C[C@@H]23)cc1 | ? | · |
| CCC(=O)Nc1ccc2c(c1)OC[C@@H](C)N(C(=O)c1ccncc1)C[C@H](C)[C@H](OC)CN(C)C2=O | 5.1 | 1.3 |
| C[C@@H]1CN([C@H](C)CO)S(=O)(=O)c2ccc(C3=CCCCC3)cc2O[C@@H]1CN(C)C(=O)c1ccccc1 | -26.4 | -13.2 |
| CN(C)C(=O)c1cccc(-c2ccc3n(c2=O)C[C@H]2[C@H](CO)[C@@H](C(=O)NCC4CC4)N[C@@H]32)c1 | -9.9 | -12.2 |
| CCNC(=O)C[C@@H]1CC[C@@H]2[C@@H](COc3ccc(NC(=O)Nc4cccc(F)c4)cc3C(=O)N2C)O1 | 2.1 | 6.5 |
| CN(C)C(=O)C[C@@H]1CC[C@H]2[C@@H](COc3ccc(NC(=O)Nc4cccc(Cl)c4)cc3C(=O)N2C)O1 | 8.8 | 4.8 |

Screening data (PubChem)
